ugtP null kill = compounds lethal to S. aureus RN4220 ugtP deletion mutant. OD600 growth, 16 h; some inactives read as strong as hits. growth inhibition, % (test concentration not listed). 330,000 tested, 0.54% active. AID 1259309;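 active means z-score under -3 and OD600 up to 0.15 on both plates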;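 further: plate controls were untreated wells for no effect and antibiotic for full effect; wells of about 80 µL received 100 nL stock; the first replicate is given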
Autofluor counter = compound fluorescence in toxin protease inhibitor counterscreen; compound autofluorescence counterscreen, microsphere flow cytometry; stronger effect = higher value; fluorescence intensity (concentration not given with the values); 360,000 tested, 3.1% active; AID 624483;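 active means at least 3 SD above the mean of all compounds, about 16000 in these data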;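 further: 100 nL of 1 mM stock went into each well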
Mtb hypoxia rep = inhibitors of hypoxia-regulated fluorescent reporter in Mycobacterium tuberculosis; M. tuberculosis hypoxia-regulated fluorescent reporter, fluorescence; fluorescence inhibition, % (test concentration not listed); 300,000 tested, 0.1% active;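 active means 35 to 45% if threefold the growth effect, above 45% if 1.5-fold the growth effect; inactive means the rest, general growth blockers included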;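 further: wells of about 50 µL received 100 nL stock; 0% = vehicle wells and 100% = reference inhibitor wells; whole bacteria with a GFP reporter of the hypoxia response; strong numbers were not always called active; many hits fall short of the cut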
BJeLR lethal = kills HRASV12-expressing BJeLR cells; BJeLR (HRASV12) viability, CellTiter-Glo ATP luminescence, 48 h; reference of the scale not given here; inhibition, % (test concentration not listed); 300,000 tested, 0.17% active;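 active means replicate mean above 50%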;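 further: 50 nL library stock added to about 25 µL; numbers are from one replicate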
RN4220 kill = S. aureus RN4220 growth inhibition | inhibition, % (concentration not given with the values) | OD600, 16 h | 330,000 tested, 0.33% active;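 active means z-score of -3 or lower and OD600 up to 0.18 on both plates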;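 further: plate controls were untreated cells for no effect and reference antibiotic for full effect; stock transfer was 100 nL into about 80 µL; one replicate is shown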
PrP UTR inh = inhibition of PrP 5' UTR reporter expression. AID 488862. 340,000 tested, 0.35% active. cell-based PrP 5' UTR mRNA reporter, plate reader. inhibition, % (test concentration not listed);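 active means every replicate at 50% or more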;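 further: 0 = median of the neutral control wells; tested in H4 reporter cells; numbers are from one replicate; inactives centre near -14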
Mtb hypoxia rep growth = recorded beside Mtb hypoxia rep, whose call it bears; growth inhibition, %; measured here: M. tuberculosis growth (absorbance);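 0% = vehicle and 100% = reference antibiotic; read after six days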
* marks the source's active call; other numbers are inactive results; x = no result given.

structure	ugtP null kill	Autofluor counter	Mtb hypoxia rep	Mtb hypoxia rep growth	BJeLR lethal	RN4220 kill	PrP UTR inh
CCOc1ccc(CCNC(=O)C2CCC(=O)N2C2CCCCC2)cc1OCC (stereo unspecified)	2.7	10292	5.4	6.5	-8.9	1.1	-20.1
COc1ccc(-c2cc3ccccc3oc2=O)cc1NC(=O)c1ccc(Br)o1	-3.4	2867	6.0	5.0	0.7	22.1	-34.1
CCOC(=O)c1cc(-c2cccc([N+](=O)[O-])c2)on1	x	4826	x	x	2.5	x	-19.3
O=C(O)c1ccc(Cl)c(NCc2ccncc2)c1	12.8	3775	4.7	-2.5	-3.4	3.9	-11.1
Cc1cccc(-c2c3c(=O)n(C)c(=O)n(C)c3cn2CCO)c1	5.9	2991	16.8	4.4	-8.0	7.9	-7.2
COc1ccc(C(=O)NC(=S)N2CC(C)OC(C)C2)cc1OC (stereo unspecified)	1.7	3375	18.4	5.4	3.3	8.4	9.4
C/C(=N\NC(=O)c1ccc(Cn2cc([N+](=O)[O-])cn2)o1)c1cccc(NC(=O)c2cccnc2)c1	x	8989	x	x	9.2	x	-39.2
CCN1CCN(C(=O)/C(=C/c2cccs2)NC(=O)c2ccc(C)c(C)c2)CC1	-6.7	4196	-1.3	-0.5	-2.0	-0.7	-6.8
Cc1cc(-n2c(C)cc(C(=O)CSc3ncnc4ccccc34)c2C)no1	19.5	3386	4.0	7.3	-2.3	6.7	-6.0
COc1ccc(NC(=O)N2CCCc3ccccc32)c(OC)c1	-4.8	4670	-10.3	-2.5	-3.1	-0.1	-8.1
O=C(NN=C/C=C\c1ccccc1[N+](=O)[O-])c1ccncc1	1.8	x	x	x	x	3.3	x
Cc1cc(OC(C)C(=O)NCc2ccccn2)c2c(C)c(Cc3ccccc3)c(=O)oc2c1 (stereo unspecified)	-10.9	5560	8.4	4.3	2.1	0.8	-2.9

Following part:
structure	ugtP null kill	Autofluor counter	Mtb hypoxia rep	Mtb hypoxia rep growth	BJeLR lethal	RN4220 kill	PrP UTR inh
O=C(NN=Cc1nn(-c2ccccc2)cc1-c1ccc(Cl)cc1)c1ccncc1	13.5	x	-1.0	12.9	x	-6.2	x
CCN(CC)C(=O)[C@H]1C[C@H](CC(=O)NC(C)(C)C)C(=O)N2CCc3c([nH]c4cc(CCC(=O)N(C)C)ccc34)[C@]12C	13.4	3438	2.2	-0.3	x	0.8	-10.2
C=CCOc1ccc(CN(C)C(=O)CNC(=O)c2ccc(-c3ccccc3)cc2)cc1	7.0	4427	-7.0	1.0	2.9	6.3	-8.1
COc1cc(OC)cc(C(C(=O)NC2CCCCC2)N(C(=O)c2ccno2)c2ccccc2)c1 (stereo unspecified)	-4.7	4055	x	x	-1.0	2.1	-14.5
CCOC(=O)Nc1ccc2c(c1)N(C(=O)N1CCN(C)CC1)c1ccccc1S2	-14.3	6211	-4.8	1.1	3.3	-1.5	-1.6
COc1cc(-c2nc3ccc4ccccc4c3c3c2CCC3)cc(OC)c1OC	43.4	4588	10.7	13.1	-8.4	1.1	-5.8
CCN(CCCNC(=O)C1CCCN(S(=O)(=O)c2cnc[nH]2)C1)c1ccccc1 (stereo unspecified)	7.8	5288	x	x	6.5	5.5	-19.4
CCOC(=O)c1c(C)oc2ccc(OC(=O)COc3c(F)c(F)c(F)c(F)c3F)cc12	2.9	2184	8.5	2.7	7.5	4.9	-13.3
Oc1ccc2ccccc2c1C=Nc1ccc(Cl)cn1	2.3	2611	-2.5	8.2	x	5.0	-25.5
CC(=O)NCCc1nc2cc(NS(=O)(=O)c3ccc(Cl)cc3)ccc2n1C	1.8	3210	8.2	6.0	8.0	1.5	-2.8
O=C(COC(=O)c1ccc(Br)cc1)NC1CCCC1	6.8	3701	6.1	0.6	-7.1	2.5	-14.1
Cc1ccc2[nH]c(=O)c(CN(CCCO)C(C)c3nnnn3Cc3ccco3)cc2c1 (stereo unspecified)	9.0	4476	12.9	9.2	-11.9	5.5	-18.3

3 compounds from above, sorted by SMILES length, falling.
structure	ugtP null kill	Autofluor counter	Mtb hypoxia rep	Mtb hypoxia rep growth	BJeLR lethal	RN4220 kill	PrP UTR inh
Cc1cc(OC(C)C(=O)NCc2ccccn2)c2c(C)c(Cc3ccccc3)c(=O)oc2c1 (stereo unspecified)	-10.9	5560	8.4	4.3	2.1	0.8	-2.9
C=CCOc1ccc(CN(C)C(=O)CNC(=O)c2ccc(-c3ccccc3)cc2)cc1	7.0	4427	-7.0	1.0	2.9	6.3	-8.1
COc1ccc(NC(=O)N2CCCc3ccccc32)c(OC)c1	-4.8	4670	-10.3	-2.5	-3.1	-0.1	-8.1

Going on with the list.
structure	ugtP null kill	Autofluor counter	Mtb hypoxia rep	Mtb hypoxia rep growth	BJeLR lethal	RN4220 kill	PrP UTR inh
Cn1c(CC(=O)Nc2ccccc2)nnc1SCC(=O)NC1=NCCS1	x	3514	x	x	-8.5	x	-11.2
Cc1cc(C=O)c(C)n1-c1cccc(C(=O)O)c1	2.7	5246	7.2	0.6	-8.7	1.1	-18.2
CCOC(=O)C1CCCN(C(=O)CC(c2ccccc2)c2ccccc2)C1 (stereo unspecified)	9.2	2422	10.6	10.4	-2.0	5.4	4.3
O=S(=O)(/N=C(/Nc1ccccn1)c1ccccc1)c1ccc(Cl)cc1	x	9441	x	x	-2.6	x	-37.8
CCCCCCC(c1c(C)n(C)n(-c2ccccc2)c1=O)c1c(C)n(C)n(-c2ccccc2)c1=O	-8.0	9980	13.5	10.2	-10.7	-1.5	-15.8
COc1cc2c(cc1OC)C(COc1ccc(C(C)C)cc1)NCC2 (stereo unspecified)	-2.3	5918	11.8	-4.1	-1.9	-0.1	-23.9
O=C(OCc1ccccc1)C(=C(O)c1ccccc1Br)c1ccc(-c2ccccc2)cn1	2.5	x	4.0	4.5	x	3.6	x
CCOC(=O)c1ccc(-n2c(CN3CCN(CCO)CC3)nc3ccc([N+](=O)[O-])cc3c2=O)cc1	7.1	3980	7.0	-0.3	-6.3	1.2	-11.7
Cc1noc(C)c1S(=O)(=O)N1CCCN(C(=O)/C=C/c2ccccc2F)CC1	4.2	8319	10.1	4.8	x	2.5	-14.5
COC(=O)CSc1nnc(CNC(=O)c2ccccc2OC)n1-c1ccc(OC)cc1	0.6	11394	2.1	8.6	x	3.4	-24.0
O=C(CCc1nnc(CCCCc2ccccc2)o1)NCCc1cccnc1	-1.1	4417	3.8	-9.6	-8.7	-1.4	-7.7
CN(C)C=NNC(=O)c1ccccc1Cl	4.9	x	0.8	13.0	x	1.4	x

Full records, quoted from the list. Order of screens: ugtP null kill	Autofluor counter	Mtb hypoxia rep	Mtb hypoxia rep growth	BJeLR lethal	RN4220 kill	PrP UTR inh
Shown for CCN(CCCNC(=O)C1CCCN(S(=O)(=O)c2cnc[nH]2)C1)c1ccccc1 (stereo unspecified) → 7.8	5288	x	x	6.5	5.5	-19.4
Shown for O=C(NN=C/C=C\c1ccccc1[N+](=O)[O-])c1ccncc1 → 1.8	x	x	x	x	3.3	x
Shown for CCN(CC)C(=O)[C@H]1C[C@H](CC(=O)NC(C)(C)C)C(=O)N2CCc3c([nH]c4cc(CCC(=O)N(C)C)ccc34)[C@]12C → 13.4	3438	2.2	-0.3	x	0.8	-10.2
Shown for O=C(NN=Cc1nn(-c2ccccc2)cc1-c1ccc(Cl)cc1)c1ccncc1 → 13.5	x	-1.0	12.9	x	-6.2	x
Shown for CCOC(=O)c1ccc(-n2c(CN3CCN(CCO)CC3)nc3ccc([N+](=O)[O-])cc3c2=O)cc1 → 7.1	3980	7.0	-0.3	-6.3	1.2	-11.7

Back to the main list with the two entries that preceded the break.
structure	ugtP null kill	Autofluor counter	Mtb hypoxia rep	Mtb hypoxia rep growth	BJeLR lethal	RN4220 kill	PrP UTR inh
O=C(CCc1nnc(CCCCc2ccccc2)o1)NCCc1cccnc1	-1.1	4417	3.8	-9.6	-8.7	-1.4	-7.7
CN(C)C=NNC(=O)c1ccccc1Cl	4.9	x	0.8	13.0	x	1.4	x
O=C(C[C@@H]1C/C=C\C[C@@H](Cc2ccc(F)cc2)C(=O)OC[C@@H]2CCCN2C1=O)NCCO	-0.2	3257	-6.2	-3.1	x	0.7	-8.5
COc1ccc2oc(=O)c(C(=O)N3CCN(c4ccccc4F)CC3)cc2c1	-14.8	5783	0.8	7.1	-0.4	5.7	-31.5
CCc1nnc(NC(=O)c2cc(-c3ccco3)nc3ccccc23)s1	9.1	4679	6.0	13.6	2.0	-5.6	-1.7
CC(C)CCOC(=O)C1C(c2ccccc2)C(C(=O)O)C1c1ccccc1 (stereo unspecified)	-11.3	25168*	7.0	12.3	-4.2	26.6	-28.8
Cc1ccc(CN2CCC(n3nccc3NC(=O)CCOc3ccccc3)CC2)cc1C	10.8	5303	6.0	4.3	7.8	3.3	-26.4
Fc1ccc(/C=N/Nc2nc3ccccc3[nH]2)cc1F	x	4631	x	x	14.8	x	-34.6
COc1ccccc1C/C(N)=N/OC(=O)COc1ccccc1C	28.0	6902	9.9	12.6	-3.9	4.8	-11.9
Cc1cc(=O)oc2n[nH]c(-c3ccccc3)c12	-1.6	2650	-1.7	4.7	23.0	-9.6	-19.0
O=C(NNc1cc(Br)c(O)c(Br)c1)c1ccccc1	49.3	2074	23.9	-1.5	0.5	12.5	-15.5
O=C1N/C(=C/c2ccc(N3CCOCC3)o2)C(=O)N1c1ccccc1	-4.5	2092	12.6	4.7	x	6.7	-29.9
Cc1ccccc1NC(=O)C(=O)Nc1ccccc1C	-2.5	3039	-3.0	12.6	20.6	0.6	-58.4
CCCn1c(C)cc(C(=O)CSc2nc3nc(C)cc(C)n3n2)c1C	-21.0	2597	-3.6	5.6	-15.5	-0.2	-18.6

The results go on:
structure	ugtP null kill	Autofluor counter	Mtb hypoxia rep	Mtb hypoxia rep growth	BJeLR lethal	RN4220 kill	PrP UTR inh
COC(=O)[C@H](CCSC)NC(=O)[C@@H](Cc1cnc[nH]1)NC(=O)OCc1ccccc1	-5.5	3857	5.6	-2.5	-9.4	1.9	-15.0
Cc1cc(C)c(OCC(=O)OCC(=O)N2CCCc3ccccc32)c(C)c1	9.0	5031	2.2	-6.4	-15.0	-0.1	-10.4
COc1ccc(N2CCC(CNC(=S)Nc3cc(C)ccc3C)C2)cc1 (stereo unspecified)	13.8	6554	0.5	5.9	1.3	0.6	-8.2
O=C1CCN(Cc2ccccc2)CCN1CCO	3.1	3510	4.6	6.8	12.2	5.6	-19.2
CCOC(=O)C1CCCN(C(=O)c2cc3c(OC)c(OC)c(OC)cc3[nH]2)C1 (stereo unspecified)	9.0	2964	6.4	4.2	1.9	4.3	-4.1
Cc1cc(N2CCN(c3ccc(C(F)(F)F)cc3[N+](=O)[O-])CC2)c2ccccc2n1	-8.1	3352	1.9	0.5	8.1	1.1	-6.2
CC(=O)c1ccc(N2C(=NC(=O)C3CCCO3)SC3CS(=O)(=O)CC32)cc1 (stereo unspecified)	3.1	5324	-1.6	-2.8	3.2	0.2	-11.0
O=C(C[n+]1cc(-c2ccc(F)cc2)n2c1CCC2)OCc1ccccc1	-0.6	2451	-3.2	6.7	-7.6	2.0	-16.2
Cc1cc(C)n(-c2nc3sc4c(c3c(=O)[nH]2)CCCC4)n1	-18.8	x	-5.5	21.8	9.7	11.0	x
Nc1cc(Cl)nc(NN=Cc2c(O)ccc3ccccc23)n1	-0.9	x	-11.3	1.5	x	8.8	x
CC(OC(=O)CSc1ccc([N+](=O)[O-])cc1)C(=O)NCc1ccco1 (stereo unspecified)	0.0	5597	10.7	-3.9	-3.1	4.2	-20.2

Hits appear at their usual frequency; about 3.9% have a hit in one of these screens.
